Source: PubChem BioAssay
WNV NS2B-NS3 inh: WNV NS2B-NS3 proteinase inhibition | actives 0.18% (n = 65,000) | AID 577 | z-score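 (tested at a level between 10 and 100 µM)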 | WNV NS2B-NS3 protease, fluorogenic substrate Ex360/Em465; active compounds read low | P06935;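 active = z-score at -3 or under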;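 also: score is relative to mean and spread of the compound wells of a plate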
Target sequence (P06935 1371-1501 limits assumed): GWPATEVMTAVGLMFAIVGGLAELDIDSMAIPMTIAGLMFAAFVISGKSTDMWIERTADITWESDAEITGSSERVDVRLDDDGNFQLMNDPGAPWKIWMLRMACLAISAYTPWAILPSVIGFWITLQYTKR
Target sequence (P06935 1502-1679 limits assumed): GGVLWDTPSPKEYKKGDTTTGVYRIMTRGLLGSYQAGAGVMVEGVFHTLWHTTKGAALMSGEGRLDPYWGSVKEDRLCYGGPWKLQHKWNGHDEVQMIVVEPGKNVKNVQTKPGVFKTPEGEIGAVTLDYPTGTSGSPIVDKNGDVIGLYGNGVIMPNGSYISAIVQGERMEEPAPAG
MT1-MMP promoter: inhibitors of MT1-MMP promoter transcription, cell-based, luciferase reporter, luminescence (AID 618); actives 0.62% (n = 87,000); MT1-MMP promoter luciferase reporter cells, luminescence; calls from a first round at 10 µM; hits with a dose series show EC50 in µM;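 active = over half of the reporter light lost at 10 µM or EC50 under 50 µM; inactive = the rest and hits that failed the dose series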;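 also: actives suppress MT1-MMP promoter-driven transcription so potencies describe inhibitors; HT1080 fibrosarcoma cells; overnight exposure; toxic or luciferase-blocking compounds were not removed from the actives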
Hsc70 ATP site: Hsc70 inhibitors, probe displacement, primary screen, biochemical, fluorescence polarization (AID 568) | Hsc70 fluorescence polarization, probe displacement; higher % means a stronger effect; strong numbers were not always called active | one-dose displacement, % at 20 µM; IC50 in µM for titrated hits | 83,000 tested, under 10 active;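 active = displacement above 50% without optical interference and an IC50 on retest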;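 also: ATPase domain with a fluorescein-tagged ATP probe; 0% = vehicle and 100% = excess ADP; read after one hour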
Active calls of the source: *; i = inactive; x = no result given. Some of the compounds tested. The share of hits here may be higher or lower than overall.

The line under a structure holds: WNV NS2B-NS3 inh | MT1-MMP promoter | Hsc70 ATP site
COc1ccc(CCNC(=O)CNS(=O)(=O)c2cccs2)cc1OC
  x | i | -6.0%
Cc1cc(Cl)ccc1OCC(=O)NCCC(=O)O
  -0.95 | i | 0.2%
COCCOCCOCCC(=O)NC1CC2CCC1(C)C2(C)C (stereo unspecified)
  -0.09 | i | -4.0%
CC(C)OC(=O)c1c(NC(=O)c2ccco2)sc2c1CCCC2
  x | i | 0.4%
Cc1ccc(F)cc1NC(=O)c1cccc(N(C)C)c1
  -0.19 | i | 5.8%
O=c1[nH]c(NCCO)nc2ncn(Cc3ccccc3)c12
  x | i | 0.7%
CCOC(=O)N1CCN(Cc2ccccn2)CC1
  -1.69 | i | 1.8%
CN(C)S(=O)(=O)N1CCN(Cc2ccccc2)CC1
  x | i | 5.9%
COc1ccc(C(=O)N(Cc2ccc(N(C)C)cc2)C2CCS(=O)(=O)C2)cc1 (stereo unspecified)
  0.32 | i | 0.4%
Cc1coc2c(O)cc3c(c12)OC1(N2CCCCC2)C(=O)NCCCC31 (stereo unspecified)
  -0.82 | i | 8.0%
Cc1nn(C)c(C)c1Sc1ccc(Br)cc1
  0.48 | i | 3.7%
CCCn1c(SCC(=O)O)nc2ccccc21
  2.41 | i | 4.2%
CCCC(c1nnnn1Cc1ccccc1)N1CCN(c2ccccc2OC)CC1 (stereo unspecified)
  -0.35 | i | -4.6%
COc1ccc(CCn2c(C)cc(C(=O)CSc3nnnn3-c3ccccc3)c2C)cc1
  x | i | -4.3%
CCCCn1c(SCC(=O)Nc2cc(C)on2)nnc1-c1cccnc1
  -0.44 | i | -1.5%
CCC(c1nc2ccccc2c(=O)n1CCN1CCOCC1)N1C(=O)c2ccccc2C1=O (stereo unspecified)
  x | i | -1.1%
COC(=O)C1=C(C)N=c2s/c(=C3\C(=O)Nc4ccccc43)c(=O)n2C1c1ccccc1 (stereo unspecified)
  -0.1 | i | 0.5%
COc1ccc(-c2c(C#N)c(SCC(=O)Nc3ccccc3)nc3c2CCCC3)cc1
  x | i | -0.7%
Cc1occc1C(=O)NC1CCCc2ccccc21 (stereo unspecified)
  0.05 | i | -4.3%
COc1cc2c(=O)n(CC3CCCO3)c(=O)n(CC(=O)Nc3ccc(F)cc3F)c2cc1OC (stereo unspecified)
  -0.96 | i | 2.9%
CCCC(=O)N(CCc1ccc(OC)cc1)Cc1nc2ccccc2c(=O)[nH]1
  x | i | -1.3%
Cn1nc(-c2ccc(Cl)cc2)c2cc(C(=O)NCCN3CCOCC3)sc21
  1.63 | i | -0.1%
CCN1C(=O)c2cccc3c(S(=O)(=O)Nc4ccccn4)ccc1c23
  0.79 | i | 6.3%
O=C(Nc1cccnc1N1CCOCC1)c1ccco1
  -0.17 | i | 3.8%
O=c1ccccn1Cc1ccccc1F
  -0.79 | i | 1.7%
CCOc1cc(/C=N/n2cnnc2)cc(Br)c1O
  -0.39 | i | 6.8%
COC(=O)CNC(=O)c1nn(-c2cccc(OC)c2)c(=O)c2ccccc12
  1.12 | i | -0.1%
CC1(C)CC(=O)c2cc(OCC(=O)NCc3cccnc3)ccc2O1
  0.56 | i | -8.2%
O=C(CN(Cc1ccco1)C(=O)CNS(=O)(=O)c1ccc(Cl)cc1)NCc1ccc(F)cc1
  -0.34 | i | -4.9%
O=C(O)CCCC(=O)Nc1cccc2cccnc12
  1.27 | i | 0.5%
Cc1ccsc1C(=O)NC(C)c1ccc2c(c1)OCO2 (stereo unspecified)
  x | i | -3.6%
CCCCc1ccc(NC(=O)COCC)cc1
  -1.18 | i | -0.1%
COCCCNC(=O)c1sc2ncnc(N3CCc4ccccc4C3)c2c1C
  x | i | -4.5%
O=C(O)C1CCCN1C(=O)c1cncc(Br)c1 (stereo unspecified)
  -1.24 | i | 3.5%
COc1ccc(NC(=O)c2cccnc2)c(OC)c1
  -0.51 | i | 3.5%
Cc1ccccc1NC(=O)c1ocnc1C
  1.93 | i | 5.4%
Cc1cc(C)nc(NC(=O)CCCC(=O)O)c1
  0.11 | i | 3.6%
CCOC(=O)c1sc(N(C)C)nc1-c1ccccc1
  x | i | -0.8%
CCCCN(C)S(=O)(=O)c1c(C)[nH]c(=O)[nH]c1=O
  x | i | -0.4%
CCOC(=O)c1c(CN(C)C)n(C)c2ccc(OC(C)=O)cc12
  -1.17 | i | 0.9%
COCCn1c(C)cc(C2=NNC(=Nc3ccccc3F)SC2)c1C
  x | 3.04µM* | -11.1%
CCOc1ncccc1C(=O)OCC(=O)NCCc1ccccc1
  x | i | 9.0%
CC(C)CCSc1nc(N2CCOCC2)c2c(c1C#N)CC(C)(C)OC2
  0.56 | i | -2.4%
O=C(CCN1CCCC1)Nc1cccc(Br)c1
  -1.28 | i | -3.6%
CC(=O)Nc1nc(C)c(Oc2ccccc2)c(=O)[nH]1
  -0.8 | i | -1.8%

Full records, quoted from the list.
Entry for Cc1occc1C(=O)NC1CCCc2ccccc21 (stereo unspecified) → WNV NS2B-NS3 inh: 0.05; MT1-MMP promoter: i; Hsc70 ATP site: -4.3%
Entry for O=C(Nc1cccnc1N1CCOCC1)c1ccco1 → WNV NS2B-NS3 inh: -0.17; MT1-MMP promoter: i; Hsc70 ATP site: 3.8%
Entry for CN(C)S(=O)(=O)N1CCN(Cc2ccccc2)CC1 → WNV NS2B-NS3 inh: x; MT1-MMP promoter: i; Hsc70 ATP site: 5.9%

(further entries)
The line under a structure holds: WNV NS2B-NS3 inh | MT1-MMP promoter | Hsc70 ATP site
O=C(Nc1scc(-c2ccc(F)cc2)c1C(=O)O)c1ccco1
  -0.01 | i | 4.6%
CCOC(=O)N1CCN(CC(=O)Nc2c(C(=O)OC)[nH]c3ccc(Cl)cc23)CC1
  0.09 | i | 1.5%
Cc1ccccc1-c1noc(-c2ccccc2C(=O)N2CCCC2)n1
  0.34 | i | 2.8%
CCn1c2ccccc2c2nnc(SCC(=O)c3ccccc3)nc21
  -0.55 | i | 5.6%
Cc1ccc(NCC(=O)N/N=C\C(Br)=C\c2ccccc2)cc1
  x | i | -5.0%
C/C(Cl)=C/Cn1c(N2CCCC2)nc2c1c(=O)n(C)c(=O)n2C
  0.74 | i | 6.7%
Cc1ccc(C2C(C#N)=C(N)Oc3c2sc2ccccc32)o1 (stereo unspecified)
  2.3 | i | -126.5%
CC(C)(C)NC(=O)Cn1nnc(-c2ccc(S(C)(=O)=O)cc2)n1
  -1.52 | i | 2.2%
O=C(COC(=O)c1ccccc1O)Nc1ccc(OC(F)F)cc1
  0.35 | i | 6.9%
COc1ccccc1CC(=O)Nc1ccc(-c2noc(COc3ccc(Br)cc3)n2)cc1
  x | i | -5.2%
COC(=O)Cc1c(C)nc2nc(-c3ccccc3)[nH]n2c1=O
  0.18 | i | 1.0%
O=S(=O)(Cc1ccccc1Cl)CC(O)COc1ccccc1Cl (stereo unspecified)
  x | i | -0.3%
Cc1ccc(NC(=O)CN(C)C(=O)CN2C(=O)NC(C)(c3ccccc3)C2=O)cc1 (stereo unspecified)
  -2.44 | i | -7.5%
CCOC(=O)CCNC(=O)c1ccccc1Br
  0.13 | i | 2.5%
CCOC(=O)N1CCN(C(=O)CSc2nnc(-c3cccc(Cl)c3)o2)CC1
  -0.28 | i | 2.0%
O=C(Cn1c(=O)[nH]n(-c2ccccc2)c1=O)N1CCCc2ccccc21
  0.14 | i | -3.6%
Cc1cc(Cl)c(S(=O)(=O)NC2CCCC2)cc1OCC(=O)NC1CCCCC1
  x | i | 1.5%
CS(=O)(=O)N1CCC(C(=O)Nc2c(F)cccc2F)CC1
  0.43 | i | -7.3%
Cc1ccc(-n2c(SCC3CCCCO3)nnc2-c2ccco2)cc1 (stereo unspecified)
  -0.19 | i | 3.9%
COc1cc(C2N(c3cccc(Cl)c3)C(=O)C3CCCN32)cc(OC)c1OC (stereo unspecified)
  -0.56 | i | 0.0%
COc1ccc(-c2cc3ccccc3n2CC(O)CNC(CO)(CO)CO)cc1 (stereo unspecified)
  -0.6 | i | 5.6%
COc1ccc(OC)c(CNC(=O)C2CCCN(c3nc4ccccc4o3)C2)c1 (stereo unspecified)
  -0.37 | i | -1.1%
O=C(O)C1CCCCC1C(=O)Nc1ccc(F)cc1F (stereo unspecified)
  x | i | -0.4%
COc1ccc(C(=O)NCC(=O)Nc2ccc(F)cc2)cc1OC
  x | i | 2.5%
Cc1ccc(Cl)cc1N1CCN(S(=O)(=O)c2c(C)[nH]c(=O)[nH]c2=O)CC1
  1.19 | i | -2.3%
Cn1c(=O)n(C)c2cc(NC(=O)CSc3nnc(-c4ccccc4O)n3-c3ccccc3)ccc21
  -0.33 | i | 6.1%
CCC(NC(=O)c1ccccc1O)c1ccccc1 (stereo unspecified)
  0.49 | i | -4.3%
CCC(=O)Nc1cccc(NC(=O)CSc2nnnn2C)c1
  -0.01 | i | -0.2%
CC(=O)Nc1cc2nn(-c3ccccc3)nc2cc1Cl
  1.15 | i | 2.9%
O=S1CCCSC1c1cccnc1 (stereo unspecified)
  -0.81 | i | 2.8%
N#C/C(=C(\O)c1ccco1)c1ccccn1
  -0.96 | i | -2.9%
Cc1ccc(C(=O)/C=C2\NCC(C)NC2=O)cc1 (stereo unspecified)
  x | 3.53µM* | -4.0%
CCOC(=O)c1sc2nccc(N(C)C)c2c1N=CNOCc1ccccc1
  x | i | -0.3%
Cn1nc(CC(=O)Nc2ccc3c(c2)CCC3)c2ccccc2c1=O
  -0.73 | i | -0.3%
CC(=O)c1nn(-c2ccc(Br)cc2)cc1C(=O)c1ccco1
  x | i | -0.2%
CSc1nnc(NC(=O)C2CCCCC2)s1
  -0.99 | i | 11.3%
O=C(NCCCn1ccnc1)c1cc(C2CC2)on1
  0.21 | i | 1.9%
O=C(OC(C(=O)NC1CCCC1)c1ccncc1)C1=Cc2ccccc2OC1 (stereo unspecified)
  x | i | 4.1%
Cc1cc(C)cc(OCC(=O)OCC(=O)Nc2ccc(Cl)cn2)c1
  x | i | 2.4%
C[N+](C)(C)CCCC(=O)c1ccc2c(c1)OCO2
  x | i | -0.3%
CSc1nc(C)c(Cl)c(C)c1C#N
  0.75 | i | 0.5%
CC(C)CCNC(=O)CCn1nc(-c2ccccc2)ccc1=O
  -0.69 | i | 1.3%
CCCCCCCC(=O)N/N=C/c1cccnc1
  x | i | 1.6%
COc1cccc(-n2c(SCC(=O)Nc3cc(C)on3)nc3ccccc3c2=O)c1
  -0.11 | i | -1.1%
CCn1c(C)c(C(C)=O)c(SC)nc1=S
  x | i | 0.7%
O=C(NCC(c1cccnc1)N1CCOCC1)c1cccs1 (stereo unspecified)
  1.23 | i | 0.2%
Cc1ccc(NC(=O)C2CCCN2C(=O)Oc2ccccc2)cc1 (stereo unspecified)
  0.11 | i | -0.1%
COc1cc(OC)c(NC(=O)Nc2ccc(OC)c(OC)c2)cc1Cl
  2.27 | i | -0.3%
COc1ccc(NC(=O)CSc2nnc(Cn3c(=O)sc4ccccc43)n2C)c(OC)c1
  1.1 | i | 1.9%
CC(C)OCCCNC(=O)c1ccc(NC(=O)C2CCCO2)cc1 (stereo unspecified)
  0.45 | i | 0.9%
Cc1nc2ccccn2c1C(=O)NC1CCCCC1
  0.47 | i | -2.0%
COc1ccc(-c2noc(COc3ccc4ccccc4c3Br)n2)cc1OC
  1.1 | i | -1.8%
Cc1[nH]n2c(=O)cc(C(C)(C)C)nc2c1-c1ccccc1
  2.96 | i | 0.3%
Cc1cccc2cc3c(NC(=O)C(C)C)nn(C)c3nc12
  1.25 | i | 2.6%
COC(=O)Cc1cc(=O)n2[nH]c(C)c(-c3ccccc3)c2n1
  x | i | 1.6%
Cc1cc(F)ccc1NCc1ccncc1
  0.56 | i | 7.0%
Cc1nn2c3ccccc3nc2n(Cc2ccccc2)c1=O
  0.03 | i | -0.4%
CCC(C)(C)NC(=O)C(c1cccn1C)N(C(=O)Cn1nnc2ccccc21)c1ccc(OC)cc1 (stereo unspecified)
  0.09 | i | 6.1%
COc1cc(CN2CCN(S(=O)(=O)c3ccc(NC(C)=O)cc3)CC2)cc(OC)c1O
  -0.12 | i | 1.8%
COCCCn1c(Cc2csc(Nc3cccc(Cl)c3)n2)nnc1SCC(=O)OC
  0.39 | i | -2.0%

Next part:
The line under a structure holds: WNV NS2B-NS3 inh | MT1-MMP promoter | Hsc70 ATP site
Cn1c(NCc2cccc(Br)c2)nc2ccccc21
  -0.78 | i | 2.8%
COCCNC(=O)COC(=O)c1nsc(Cl)c1Cl
  0.46 | i | -1.2%
CCCCC(=O)Nc1ccc(NC(=O)CC)cc1OC
  0.4 | i | -4.4%
CC1CCN(S(=O)(=O)c2ccc3c(c2)oc(=O)n3CC(=O)N2c3ccccc3CC2C)CC1 (stereo unspecified)
  -1.59 | i | -13.4%
O=C(c1cc2ccccc2oc1=O)N1CCN(Cc2ccc3c(c2)OCO3)CC1
  -0.21 | i | 2.4%
COc1cccc(-c2nc(=S)c3c(n2CCCO)CCCC3)c1
  -0.89 | i | -7.2%
COc1ccc(N2CCN(C(=O)CN3C(=O)c4ccccc4S3(=O)=O)CC2)cc1
  1.12 | i | 2.6%
CCc1ccc(N(CC(=O)Nc2ccc(OC)cc2OC)S(C)(=O)=O)cc1
  1.73 | i | 6.2%
